From PubChem BioAssay
GIV Gai3 FP: inhibitors of GIV peptide binding to Galpha-i3, primary screen, biochemical, fluorescence polarization, FITC-GIV GBA peptide, rat Galphai3 | Guanine nucleotide-binding protein G(i) subunit alpha-3 (Rattus norvegicus), P08753 | 90 min; stronger effect = lower value; scaled: aluminum fluoride 0%, vehicle 100% | percent of control (FP), % (test concentration not listed) | 210,000 compounds, 0.42% hits | AID 1224905, 2016;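 active means replicate mean at 85% of control or lower, very high polarization wells dropped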;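 further: wells of about 15 µL received 100 nL stock; the first replicate is given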
Target sequence (P08753 whole entry, looked up): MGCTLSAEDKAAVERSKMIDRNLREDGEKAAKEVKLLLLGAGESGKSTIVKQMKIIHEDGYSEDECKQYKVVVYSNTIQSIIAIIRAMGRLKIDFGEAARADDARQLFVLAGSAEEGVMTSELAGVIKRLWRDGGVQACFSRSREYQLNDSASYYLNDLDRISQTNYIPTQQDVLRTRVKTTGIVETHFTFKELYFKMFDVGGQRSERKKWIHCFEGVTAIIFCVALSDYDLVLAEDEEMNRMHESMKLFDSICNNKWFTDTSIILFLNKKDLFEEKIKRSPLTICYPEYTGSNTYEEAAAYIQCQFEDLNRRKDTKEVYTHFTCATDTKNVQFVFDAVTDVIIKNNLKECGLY
Sa growth inh: S. aureus growth inhibition at 42 and 30 °C, primary screen, LtaS inhibitor project, RN4220, two temperatures; OD600, 20 h, 42 °C; stronger effect = lower value; relative growth, % (concentration not given with the values); 170,000 compounds, 0.53% hits;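 active means growth at 42 °C up to 50% and 20 or more points under that at 30 °C, or under 10% at both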;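 further: 300 nL library stock went into each well; scaled to the means of positive and negative controls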
HCMV UL50-53 inh: inhibitors of HCMV UL50-UL53 interaction, biochemical, HTRF | AID 1918969, 2023 | inhibition, % (no concentration beside the values) | 190,000 compounds, 0.15% hits | normalized percent inhibition;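 active means both replicates at 50% or more, plus weaker picks with an unusually low signal ratio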;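 further: stock transfer was 100 nL into about 20 µL; 0% = negative control wells and 100% = wells with untagged competitor protein; inactives centre near -12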
Sa growth inh second temp: recorded beside Sa growth inh, whose call it bears; relative growth, %; measured here: growth at 30 °C;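 optical density after 20 h as mean of two plates; 100% = untreated growth and lower means inhibition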
* hit, by the source's call; x = not tested or not shown; & = joins results of further samples.

SMILES	GIV Gai3 FP	Sa growth inh	Sa growth inh second temp	HCMV UL50-53 inh
O=S(=O)(c1ccccc1)c1ccc(S(=O)(=O)N2CCCCC2)s1	102	92	86	-27
COc1ccc(OCCC(=O)Oc2ccc(OC)cc2)cc1	x	76	90	-28
Cc1ccc(NC(=O)c2c(F)cccc2Cl)cc1NS(C)(=O)=O	106	100	92	-6
CCc1cc2c(cc3c(=O)[nH]nc(CC)n32)s1	113	101	68	-39
O=C1Nc2c(c(=O)[nH]c(=O)n2-c2ccc(Cl)cc2)C1(NS(=O)(=O)c1ccccc1)C(F)(F)F (stereo not drawn)	107	105	81	-44
Cc1ccc(CNC(=O)CN2Cc3ccccc3C2=O)cc1	97	100	92	x
CCC(C(=O)Nc1ccccc1OC)n1nc(C)c2sc3ccccc3c2c1=O (stereo not drawn)	102	137	91	-11
COC(=O)CSc1nc2sc3c(c2c(=O)n1-c1ccc(C)cc1)CC(C)(C)OC3	111	x	x	3
CCOc1ccc(S(N)(=O)=O)cc1-c1nc(C)no1	111	x	x	-7
CC1CC(Nc2ccccc2)c2ccccc2N1C(=O)c1ccncc1 (stereo not drawn)	100	93	87	x
COC(=O)N/N=C\c1ccc(OC(=O)c2ccco2)cc1	98	90	81	-41
CCC/C(O)=C1\C(=O)CC(C)(C)CC1=Nc1ccncc1	111	95	104	-3
CCOc1ccc(C(=O)OCC(=O)Nc2ccc(N3CCOCC3)cc2)cc1	x	86	88	-8
CCN1CCN(C(=O)C2=Cc3ccccc3OC2)CC1	104	x	x	-8
COc1ccccc1NC(=O)C1=C(C)Nc2nc3ccccc3n2C1c1ccccc1Cl (stereo not drawn)	100	85	85	-5
Cc1ccc2c(c1)c1c(n2CC(O)Cn2c(C)cc(C)nc2=O)C(=O)CCC1 (stereo not drawn)	103	84	74	-44
CC1Oc2ccc(S(=O)(=O)N3CCC(C(=O)N4CCN(c5ccccc5)CC4)CC3)cc2NC1=O (stereo not drawn)	102	x	x	-27
Cc1noc2c1C(c1ccsc1)C1=C(CC(c3ccc(O)cc3)CC1=O)N2 (stereo not drawn)	109	x	x	-15
c1ccc(-c2cn3nc4c(nc3n2)[nH]c2ccccc24)cc1	116	x	x	-36
CC1CCCC(C)N1C(=O)COC(=O)c1cc(=O)c2ccccc2o1 (stereo not drawn)	x	100	94	-16

Taken from above:
HCMV UL50-53 inh result of O=C1Nc2c(c(=O)[nH]c(=O)n2-c2ccc(Cl)cc2)C1(NS(=O)(=O)c1ccccc1)C(F)(F)F (stereo not drawn) : -44
HCMV UL50-53 inh result of COC(=O)N/N=C\c1ccc(OC(=O)c2ccco2)cc1 : -41
HCMV UL50-53 inh result of Cc1ccc2c(c1)c1c(n2CC(O)Cn2c(C)cc(C)nc2=O)C(=O)CCC1 (stereo not drawn) : -44
GIV Gai3 FP result of CCN1CCN(C(=O)C2=Cc3ccccc3OC2)CC1 : 104
GIV Gai3 FP result of CC1CC(Nc2ccccc2)c2ccccc2N1C(=O)c1ccncc1 (stereo not drawn) : 100
Sa growth inh result of CCOc1ccc(C(=O)OCC(=O)Nc2ccc(N3CCOCC3)cc2)cc1 : 86

Additional compounds follow:
SMILES	GIV Gai3 FP	Sa growth inh	Sa growth inh second temp	HCMV UL50-53 inh
CCN(CC)S(=O)(=O)c1ccc2c(c1)nc(CN1CCN(C(=O)Nc3ccc(C)cc3)CC1)n2C	105	x	x	-17
CCOc1ccc(CSc2n[nH]c(CC)n2)cc1	103	88	89	x
Cc1ccc(S(=O)(=O)c2cn(C)c3cc(N4CCCCCC4)c(F)cc3c2=O)cc1	104	130	91	x
CCC1CCCCN1C(=O)C1CC(c2cc(Cl)c(OC)cc2OC)=NO1 (stereo not drawn)	103	109	88	-8
O=C(Cc1cc(=O)[nH][nH]1)N/N=C/c1cccc2ccccc12	105	93	87	-21
C=CCc1cccc2cc(C(=O)NC)c(=O)oc12	107	92	96	-75
COC(=O)c1c(C)nn(C(=O)c2ccc(C)cc2)c1-c1cc(C)on1	99	82	89	-18
CCOCCCNC(=O)c1ccc(-n2c(-c3ccccc3)cc3c2CCC(C)C3)cc1 (stereo not drawn)	99	101	107	12
Cc1nn(-c2ccccc2)c2c1P(=O)(N1CCOCC1)/C(=C1/N(C)c3ccccc3C1(C)C)C=N2 (stereo not drawn)	x	85	88	-23
CC1CCN(C(=O)COc2ccc(-c3nc(-c4ccccc4)no3)cc2)CC1	107	x	x	-9
Nc1c(C(=O)OCC2CCCO2)c2nc3ccccc3nc2n1-c1ccc2c(c1)OCO2 (stereo not drawn)	103	87	74	-12
COC(=O)c1cc2ccc3c(c2oc1=O)CN(Cc1ccccc1)CO3	114	97	87	x
CCOc1ccc(/C=C/c2nc(C#N)c(NCCCN(C)C)o2)cc1	99	98	84	-100
COC(=O)COc1ccc2ccccc2c1	x	127	92	-11
C[N+](C)(CCO)CCn1cnc2c(N)ncnc21	101	91	91	-3
O=C(Cn1c(C(=O)NC2CCCCC2)cc2sccc21)c1ccccc1	104	117	91	-2
CCCn1nc(C)cc1N	104	95	87	-6
COc1ccc(-c2noc(-c3ccc(NC4CCCCC4)c([N+](=O)[O-])c3)n2)cc1OC	95	94	84	-25
CCOC(=O)C1=C(CN(C)C2CCCCC2)NC(=O)NC1c1cccs1 (stereo not drawn)	111	90	93	-11
CCCNC(=O)CCn1nc(-c2ccccc2)c2ccccc2c1=O	108	102	89	-33

Reformatted: results already given
O=C(Cc1cc(=O)[nH][nH]1)N/N=C/c1cccc2ccccc12
  GIV Gai3 FP: 105
  Sa growth inh: 93
  Sa growth inh second temp: 87
  HCMV UL50-53 inh: -21
C=CCc1cccc2cc(C(=O)NC)c(=O)oc12
  GIV Gai3 FP: 107
  Sa growth inh: 92
  Sa growth inh second temp: 96
  HCMV UL50-53 inh: -75
COC(=O)c1c(C)nn(C(=O)c2ccc(C)cc2)c1-c1cc(C)on1
  GIV Gai3 FP: 99
  Sa growth inh: 82
  Sa growth inh second temp: 89
  HCMV UL50-53 inh: -18
CCOCCCNC(=O)c1ccc(-n2c(-c3ccccc3)cc3c2CCC(C)C3)cc1 (stereo not drawn)
  GIV Gai3 FP: 99
  Sa growth inh: 101
  Sa growth inh second temp: 107
  HCMV UL50-53 inh: 12

More compounds
SMILES	GIV Gai3 FP	Sa growth inh	Sa growth inh second temp	HCMV UL50-53 inh
CC(=O)Nc1ccc(S(=O)(=O)Nc2cccc3c(=O)[nH][nH]c(=O)c23)cc1	101	99	93	-18
CC(=O)OC(COc1ccccc1)Cn1nc(C)cc1C (stereo not drawn)	108	95	83	-18
Cc1csc(=Nc2ccccc2F)n1/N=C/c1ccncc1	x	97	92	-61
CCN(C(C)=O)c1nc(CSc2n[nH]c(N)n2)cs1	x	91	97	4
Cc1cccc(C)c1OCCn1c(C2CC(=O)N(Cc3ccc(F)cc3)C2)nc2ccccc21 (stereo not drawn)	102	80	4	-21
COc1ccccc1N1CCN(C(=O)CCn2cnc3onc(-c4ccc(F)cc4)c3c2=O)CC1	104	80	97	x
CCN1CCN(CCCNC(=O)Nc2c[nH]c3ccc(C)cc3c2=O)CC1	105	x	x	-16
Cc1ccc(/C=c2\s/c(=C\C(=O)C(C)(C)C)n(CC(=O)NCc3ccco3)c2=O)s1	x	127	94	-32
Cc1nc(N2CCN(c3ccccc3)CC2)[nH]c(=O)c1CCC(C)C	98	x	x	0
CCCCn1c2ccccc2c2nc3ccccc3nc21	100	117	70	x
Cc1ccc(NC(=O)CC2Sc3ccccc3NC2=O)c(C)c1 (stereo not drawn)	110	92	93	-2
O=C(OCc1nc2ccccc2s1)C1COc2ccccc2O1 (stereo not drawn)	x	111	101	13
CS(=O)(=O)N1CCCc2cc(C(=O)CSc3nnc(-c4ccncc4)n3C3CC3)ccc21	x	85	87	-9
CCN(CC)CCOC(=O)c1ccc(NC(=O)c2cc3cc(OC)ccc3oc2=O)cc1	100	107	86	-51
COc1ccc(C2CC(c3ccc(C)cc3)=NN2C(=O)c2ccccc2)cc1 (stereo not drawn)	108	x	x	-5
COc1ccccc1N1CCN(C(=O)CSc2n[nH]c(-c3ccccc3Cl)n2)CC1	103	79	87	x
CCCOc1ccc(Cn2c(=O)oc3ccccc32)cc1	104	102	91	-11
COc1ccc(C2=NN(S(=O)(=O)c3ccc(C)cc3)C(c3ccc(F)cc3)C2)cc1OC (stereo not drawn)	102	x	x	-12
O=C(OCCN=C1NS(=O)(=O)c2ccccc21)c1cccnc1	101	112	90	x
Cc1ccc2[nH]cc(NC(=O)N(C)Cc3ccccc3)c(=O)c2c1	101	99	95	-4
CCN(CC)CCOC(=O)c1ccc(NC(=O)c2cc3cccc(OC)c3oc2=O)cc1	107	95	91	x
CC(=O)N1c2ccc(S(=O)(=O)NCC3CCC(C(=O)Nc4cc(C)cc(C)c4)CC3)cc2CC1C (stereo not drawn)	110	151	105	x
CC(=O)Nc1sc(C)c(C)c1C(=O)OCC(=O)N1CCOCC1	x	96	101	-10
Fc1ccc(-c2ccc(CNCc3ccccn3)o2)cc1	103	x	x	-10
CCOc1ccccc1NC(=O)Cn1c(=O)n(-c2ccc(C)c(C)c2)c(=O)c2oc3ccccc3c21	100	100	91	x
Cn1cccc1/C=C1\CC/C(=C\c2cccn2C)C1=O	-75*	100	85	x
Cc1nc(C(C)(C)O)n(-c2ccccc2)n1	101	109	90	-19
O=C1OC(c2cccs2)=N/C1=C\c1cccc(F)c1	x	105	86	-33
Nc1nnc(C(F)(F)C(F)(F)C(F)(F)F)s1	106	90	85	-29
Cc1ccc(SC2=NS(=O)(=O)c3ccccc32)c(C)c1	94	89	81	x
CC(C)N/C=C1\C(=O)c2ccccc2N(C)S1(=O)=O	99	103	93	5
Cc1c(Cl)cccc1NC(=O)CN1C(=O)c2ccccc2Sc2ncccc21	100	93	93	x
CC(C)N1CC(COc2ccc(Br)cc2)OC1=O (stereo not drawn)	97	103	79	-12
NCC1CCC(C(=O)O)CC1 (stereo not drawn)	x	104	109	7&-14
N#Cc1ccc(CSc2nc(O)cc(=O)n2C2CCCC2)cc1	x	80	56	-11
CCOC(=O)c1cc(-c2ccc(OC)c(S(=O)(=O)N3CCCCC3)c2)on1	104	111	82	-36
CCOC(=O)c1ccc(NC(=O)c2cc(C)nc3c2c(=O)n(C)c(=O)n3C)cc1	103	x	x	-22
CNC(=O)C12CCC(C)(c3nc4cc(C)c(C)cc4nc31)C2(C)C (stereo not drawn)	100	112	94	-19
O=C(NCc1ccccc1F)c1ccc2c(=O)n(Cc3ccco3)c(=S)[nH]c2c1	x	62	84	-13
COc1ccc(CN2COc3ccc4c(C)cc(=O)oc4c3C2)cc1	102	102	87	x
N#C/C(=C\c1cc[nH]c1)C(N)=S	x	73	80	-136
Cc1ccc(NC(=O)Nc2ccc3nc(N4CCN(C)CC4)cc(C)c3c2)cc1C	99	129	91	x
COc1ccc(Cl)cc1Nc1ncnc2sc(C)c(S(=O)(=O)N3CCCCC3)c12	101	x	x	-20
CCC(=O)Nc1cc2c(cc1SC1CCCCC1)n(C)c(=O)n2C	104	x	x	-6
COc1ccc2c(CC(=O)NCC3CCCCC3)coc2c1	x	119	93	-16
CCC(C(=O)Nc1cc(C)nn1-c1nc(C)cc(C)n1)c1ccccc1 (stereo not drawn)	x	89	77	-30
O=C(C1=NNCC1c1ccco1)c1ccccc1 (stereo not drawn)	111	99	69	-25
Nc1ccc(I)nc1	x	72	88	-24
Cc1nc(N(C)C)cc(N2CCN(S(C)(=O)=O)CC2)n1	99	x	x	-28
CCCc1ccc(OCc2ccc(C(=O)Nc3ccccc3C(=O)OC)o2)cc1	103	105	82	-25
COc1ccccc1NC(=O)CCCc1nc(-c2cc3ccc(C)cc3[nH]c2=O)no1	110	x	x	-33
CS(=O)(=O)c1ccc(-c2nnn(CC(=O)NC3CCCC3)n2)cc1	104	109	92	-6
COc1cccc2cc(C(=O)NC(C)=O)c(=Nc3ccc(C(F)(F)F)cc3)oc12	104	x	x	16
COc1cccc(CNC(=O)CSC2=Nc3ccccc3C3=NC(C)C(=O)N23)c1OC (stereo not drawn)	106	98	96	x
COc1cc(OC)cc(C(=O)Nn2cc(C(=O)N3CCN(C)CC3)c3ccccc3c2=O)c1	97	104	88	x
O=C1c2ccccc2-c2c(-c3ccccc3)nc3ccccc3c21	92	109	84	x
Cc1noc(C)c1C(=O)Nc1ccc2c(c1)OCCO2	108	92	92	6
CC1CCC2C(=O)N(CNc3ccc(Br)cc3)C(=O)C2C1 (stereo not drawn)	103	x	x	-16
COc1ccc(-c2csc(C3=C(O)CN(CCCN4CCOCC4)C3=N)n2)cc1OC	x	97	85	-37
COCCNC(=O)CSc1nc2cc3c(cc2c(=O)n1CCCCCC(=O)NCCc1ccc(OC)c(OC)c1)OCO3	105	97	89	x

(cont.)
SMILES	GIV Gai3 FP	Sa growth inh	Sa growth inh second temp	HCMV UL50-53 inh
CCc1cc(C(=O)COc2ccc3ccccc3c2)c(O)cc1O	x	102	82	-32
CSC1=NNC(c2nn(C)cc2Cl)S1 (stereo not drawn)	110	104	96	0
Cc1nn(-c2ccccn2)c2c1C1C(C2)C1(C)C (stereo not drawn)	x	128	88	2
c1ccc(Nc2csc(N=C3CCCCC3)n2)cc1	x	90	88	-17
CCCCSc1nnc2n(-c3cccc(C)c3)c(=O)c3c4c(sc3n12)CCCC4	105	101	107	13
O=C(NCc1ccccn1)c1cc2c(Cl)ccc3c2n1CCO3	101&104	95	90	-36&-11
